B2AR ag – activates human beta-2 adrenergic receptor causing internalization | Am2.2-beta2AR cells, FAP receptor internalization, flow cytometry; reference of the scale not given here | response, % (no concentration beside the values) | P07550 | hit rate 0.43% among 340,000;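 active = response above a set limit, near 3 SD of response in nonfluorescent compounds, cut at about 42% in these data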;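 also: stock transfer was 100 nL into about 11 µL; a reference agonist was the positive control; negative values mostly stem from fluorescent compounds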
Target sequence (P07550 whole entry, looked up): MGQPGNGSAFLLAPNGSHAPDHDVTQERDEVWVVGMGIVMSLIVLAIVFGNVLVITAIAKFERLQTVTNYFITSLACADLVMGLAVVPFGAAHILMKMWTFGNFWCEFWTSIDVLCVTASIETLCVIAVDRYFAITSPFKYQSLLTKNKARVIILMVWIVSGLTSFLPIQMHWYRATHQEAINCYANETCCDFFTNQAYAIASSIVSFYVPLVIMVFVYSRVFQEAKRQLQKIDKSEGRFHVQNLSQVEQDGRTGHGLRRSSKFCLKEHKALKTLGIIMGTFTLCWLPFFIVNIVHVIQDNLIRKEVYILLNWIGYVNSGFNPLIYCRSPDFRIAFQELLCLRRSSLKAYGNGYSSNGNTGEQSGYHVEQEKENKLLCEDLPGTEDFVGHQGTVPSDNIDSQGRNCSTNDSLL
LANA-H2B inh – blocks KSHV LANA binding to histone H2A/H2B. Q9QR71. cell-free LANA-H2A/H2B peptide, fluorescence polarization. inhibition, % (concentration not given with the values). hit rate 0.6% among 320,000. AID 2629; in the data active = inhibition mostly above about 10%, no sharp cut-off; inactive = mostly below about 6.7%;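 also: stock transfer was 7.5 nL into about 10 µL; 0% = median of vehicle wells and 100% = median of positive control wells; one replicate is shown; the record names a cut of 25% in any replicate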
Calb FLC – C. albicans growth modulation with fluconazole. C. albicans CaCi-2 (fluconazole-resistant clinical isolate) + fluconazole, Alamar Blue growth, 48 h. hit rate 0.57% among 300,000. growth inhibition, % (test concentration not listed);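 active = most replicates above 75%; inconclusive = exactly half above 75%; inactive = most below 75%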;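 also: all wells also contain fluconazole at 8 µg/ml as a sub-toxic cotreatment; 0% = median of DMSO wells and 100% = median of geldanamycin control wells; wells of about 8 µL received 7.5 nL stock; the first replicate is given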
T cruzi repl – blocks replication of Trypanosoma cruzi | inhibition, % (test concentration not listed) | T. cruzi beta-gal in NIH3T3, luminescence, 90 h | hit rate 1.4% among 300,000;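 active = mean inhibition across valid replicates above about 55%, limit read from the data; inconclusive = mean below that limit but half or more replicates reach it; inactive = mean below it, under half of replicates reach it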;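 also: signal also drops with host cell toxicity which is not excluded here; 0% = plate median of DMSO wells and 100% = zero luminescence signal; higher percent means less beta-gal luminescence so fewer parasites; stock transfer was 50 nL into about 50 µL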
A1 inh – inhibitors of the anti-apoptotic protein A1, read as caspase activation | MEF A1-2A-BIM cells, Caspase-Glo 3/7 luminescence, 3 h; percent of clofoctol response, vehicle zero | caspase activation, % (test concentration not listed) | hit rate 0.066% among 330,000;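 active = over half of replicate activation scores above 10%, or exactly half above 10 with the replicate mean above 10; inconclusive = replicate mean below 10 yet half the replicates above 10; inactive = over half of replicates below 10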;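 also: wells of about 30 µL received 50 nL stock; many hits fall short of the cut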
UCH37 inh – inhibitors of human deubiquitinating enzyme UCH37. hit rate 0.33% among 330,000. purified proteasome/UCH37, Ub-AMC cleavage fluorescence. Q9Y5K5. inhibition, % (no concentration beside the values);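 active = mean of two replicates above 20%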;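 also: 0% = compound-free wells with enzyme and 100% = wells lacking proteasome; stock transfer was 100 nL into about 20 µL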
Target sequence (Q9Y5K5 whole entry, looked up): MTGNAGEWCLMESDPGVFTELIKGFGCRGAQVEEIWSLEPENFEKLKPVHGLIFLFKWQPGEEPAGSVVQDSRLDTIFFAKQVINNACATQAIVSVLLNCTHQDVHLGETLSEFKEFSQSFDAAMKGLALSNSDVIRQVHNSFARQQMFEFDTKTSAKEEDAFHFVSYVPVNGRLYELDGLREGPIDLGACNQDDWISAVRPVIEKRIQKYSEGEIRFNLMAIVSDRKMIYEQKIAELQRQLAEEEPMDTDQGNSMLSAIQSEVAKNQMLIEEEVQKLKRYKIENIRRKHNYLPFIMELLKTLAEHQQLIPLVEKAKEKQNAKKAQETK
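Reagent: Ub-AMC substrate; assay system: Proteasome-associated human UCH37 deubiquitinase; controls: no-proteasome and no-compound wells; read-out: % inhibition of Ub-AMC cleavage fluorescence; timing: 30 min preincubation with enzyme, 25 min cleavage at room temperature; signal: AMC fluorescence from Ub-AMC cleavage, excitation 355 nm, emission 460 nm; buffer or medium: Tris-HCl pH 7.4 plus ovalbumin, ATP-MgCl2, DTT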
Beta cell apopt – blocks beta cell apoptosis | INS-1E cytokine-induced death, ATP luminescence, 48 h; percent of positive-control rescue, neutral wells zero | protection from apoptosis, % (no concentration beside the values) | hit rate 0.8% among 300,000 | AID 435005;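 active = all replicates at 75% or more, or half of them and the mean; inconclusive = half reach 75% but not the mean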;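 also: 0% = cytokine-treated negative control wells and 100% = positive control rescue; higher means more ATP so stronger rescue from cytokine killing; wells of about 40 µL received 100 nL stock; the first replicate is given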
RanGTP-Imp inh – inhibitors of RanGTP-importin-beta interaction, primary screen, biochemical, FRET, CFP-Ran, YFP-importin-beta, homogeneous | cell-free CFP-Ran/YFP-importin-beta FRET ratio | inhibition, % (concentration not given with the values) | hit rate 1.1% among 300,000 | AID 2216;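 active = most replicates above 15%; inconclusive = exactly half above 15%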;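 also: 0% = DMSO wells and 100% = Ran loaded with GDP instead of GTP; wells of about 40 µL received 100 nL stock; the first replicate is given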
Active calls of the source: *.

O=C(NCc1ccc2c(c1)OCO2)C1CCCN(S(=O)(=O)c2cccs2)C1 (stereo not given) was read as B2AR ag -1, LANA-H2B inh -1.0, Calb FLC -6, T cruzi repl 7, A1 inh -0.1, UCH37 inh 2.2, Beta cell apopt -6 and RanGTP-Imp inh 3.4.
`Cc1cc(Nc2ccc(O)cc2)n2c(nc3ccccc32)c1C#N` gave B2AR ag -12, LANA-H2B inh 4.9, Calb FLC 2, T cruzi repl -23, A1 inh 0.5, UCH37 inh 5.9, Beta cell apopt -1 and RanGTP-Imp inh 2.2.
`COc1ccc(C(=O)Nc2ccc(C(=O)NCC3CCCO3)cc2)c(OC)c1OC` (stereo not given) gave B2AR ag 6, LANA-H2B inh 11, Calb FLC 1, T cruzi repl -3, A1 inh 0.3, UCH37 inh 1.8 and RanGTP-Imp inh -1.3.
COc1ccc(OCC(=O)Nc2nnc(C)s2)cc1 was read as B2AR ag 1, LANA-H2B inh 2.3, Calb FLC 0, T cruzi repl -8, A1 inh 0.1, UCH37 inh -1.8, Beta cell apopt 1 and RanGTP-Imp inh -2.4.
`Cc1ccccc1-n1ccnc1SCC(=O)NCC1CCCO1` (stereo not given) gave B2AR ag 1, LANA-H2B inh 3.8, Calb FLC 1, T cruzi repl -5, A1 inh 0.1, UCH37 inh 3.7, Beta cell apopt -7 and RanGTP-Imp inh -2.9.
Screening CN(CC(=O)Nc1ccc(F)c(F)c1F)C(=O)C1CSC2(C)CCC(=O)N12 (stereo not given) returned B2AR ag -2, LANA-H2B inh -12, A1 inh 0.5, UCH37 inh 1.0 and Beta cell apopt -3.
Screening Cn1c(SC2CCCCC2=O)nnc1-c1ccccc1F (stereo not given) returned B2AR ag 2, LANA-H2B inh -2.0, Calb FLC 35, T cruzi repl -4, A1 inh 0.2, UCH37 inh 0.3, Beta cell apopt -6 and RanGTP-Imp inh 0.7.
O=C(CCC1CCCN(C(=O)c2ccoc2)C1)NCc1ccccc1F (stereo not given) was read as B2AR ag -4, LANA-H2B inh -0.6, Calb FLC 1, T cruzi repl -1, A1 inh 0.0, UCH37 inh -0.4, Beta cell apopt -4 and RanGTP-Imp inh 3.8.
Screening O=C(Nc1cccc(Cl)c1)N(Cc1nc2ccccc2c(=O)[nH]1)Cc1cccs1 returned B2AR ag -9, LANA-H2B inh -0.8, Calb FLC -6, T cruzi repl 32, A1 inh -0.4, UCH37 inh 1.7, Beta cell apopt 3 and RanGTP-Imp inh inconclusive.
`COc1ccc(NC(=O)c2sc3nc(Cc4ccccc4)cc(C(F)(F)F)c3c2N)cc1OC` gave B2AR ag 6, LANA-H2B inh -2.7, Calb FLC -3, T cruzi repl 46, A1 inh 0.6, UCH37 inh 1.4, Beta cell apopt 6 and RanGTP-Imp inh -2.0.
`COCCN1C(=O)N[C@@H](c2cccs2)C(C(C)=O)=C1C` gave B2AR ag -1, LANA-H2B inh 2.2, Calb FLC -6, T cruzi repl -3, A1 inh 0.8, UCH37 inh -0.4, Beta cell apopt -7 and RanGTP-Imp inh 1.7.
For CC1CN(C)CCC1OC(=O)c1ccccc1 (stereo not given) the results were B2AR ag -3, LANA-H2B inh -0.7, Calb FLC 7, T cruzi repl 52, A1 inh 0.0, UCH37 inh 0.6, Beta cell apopt -12 and RanGTP-Imp inh 0.4.
`Cc1cnn(C(=O)c2oc3ccccc3c2C)c1` gave B2AR ag 2, LANA-H2B inh -3.4, Calb FLC -6, T cruzi repl -18, A1 inh -1.3, UCH37 inh 3.9, Beta cell apopt -2 and RanGTP-Imp inh inconclusive.
C/C(=N/NS(=O)(=O)c1ccc(C)cc1C)c1ccc2c(c1)OCO2 was read as B2AR ag 4, LANA-H2B inh -1.7, Calb FLC 5, T cruzi repl -4, A1 inh -0.7, Beta cell apopt 1 and RanGTP-Imp inh 2.5.
For O=C(NC1CCCCCC1)C1c2ccccc2C(=O)N1CCCN1CCOCC1 (stereo not given) the results were B2AR ag -6, LANA-H2B inh -8.5, Calb FLC -15, T cruzi repl -12, A1 inh 0.0, UCH37 inh 3.8, Beta cell apopt -10 and RanGTP-Imp inh 2.6.
`CCCCN(C(=O)C1=COCCO1)c1c(N)n(CCC)c(=O)[nH]c1=O` gave B2AR ag 7, LANA-H2B inh -0.1, Calb FLC -3, T cruzi repl 3, A1 inh 0.4, UCH37 inh 0.8 and Beta cell apopt 4.
Screening Cc1cccc(-n2cc(C#N)c(=O)[nH]c2=O)n1 returned B2AR ag -13, LANA-H2B inh -1.8, Calb FLC -2, T cruzi repl 7, A1 inh -0.1, UCH37 inh 3.4, Beta cell apopt 4 and RanGTP-Imp inh 0.1.
CCOC(=O)c1c(N)sc(C(O)(C(F)(F)F)C(F)(F)F)c1-c1ccc(F)cc1 was read as B2AR ag 2, LANA-H2B inh 2.0, Calb FLC 25, T cruzi repl 0, A1 inh 0.2, UCH37 inh 6.7, Beta cell apopt -20 and RanGTP-Imp inh -3.9.
Cc1ccc2c(c1)/C(=C/c1ccc(F)cc1)C(=O)N2 was read as B2AR ag 8, LANA-H2B inh -2.8, Calb FLC 0, T cruzi repl -4, A1 inh -0.2, UCH37 inh 0.8 and RanGTP-Imp inh -1.6.
Screening CCC(=O)c1ccc(OCc2ccccc2)c(OC)c1 returned B2AR ag -12, LANA-H2B inh 2.4, Calb FLC 0, T cruzi repl 6, A1 inh -5.0, UCH37 inh -0.8, Beta cell apopt 13 and RanGTP-Imp inh 2.3.
Cc1ccc(NC(=S)NNC(=O)c2nnn(-c3ccccc3)c2C)cc1 was read as B2AR ag -1, LANA-H2B inh 4.7, Calb FLC -12, T cruzi repl -18, A1 inh 0.1, UCH37 inh 2.4, Beta cell apopt 2 and RanGTP-Imp inh 6.6.
Screening Cc1ccc(-c2csc3ncn(Cc4ccc(C(=O)O)cc4)c(=O)c23)cc1C returned B2AR ag 4, LANA-H2B inh -0.3, Calb FLC 38, T cruzi repl 6, A1 inh -0.1, UCH37 inh 3.3, Beta cell apopt -1 and RanGTP-Imp inh 1.8.
Screening CCOC(=O)c1cccc(NC(=O)CSc2nc3ccccc3c(=O)n2CC)c1 returned B2AR ag 4, LANA-H2B inh -2.4, Calb FLC -4, T cruzi repl 34, A1 inh -0.1, UCH37 inh 2.7, Beta cell apopt 2 and RanGTP-Imp inh -0.6.
For O=C(NC(=S)Nc1ccccc1C(=O)O)c1cncc(Br)c1 the results were B2AR ag -5, LANA-H2B inh 1.6, Calb FLC 5, T cruzi repl -21, A1 inh 0.2, UCH37 inh 2.6, Beta cell apopt 2 and RanGTP-Imp inh -1.2.

Ordered by number of heavy atoms (high to low): some entries from above.
Screening CCOC(=O)c1cccc(NC(=O)CSc2nc3ccccc3c(=O)n2CC)c1 returned B2AR ag 4, LANA-H2B inh -2.4, Calb FLC -4, T cruzi repl 34, A1 inh -0.1, UCH37 inh 2.7, Beta cell apopt 2 and RanGTP-Imp inh -0.6.
Screening Cc1ccc(-c2csc3ncn(Cc4ccc(C(=O)O)cc4)c(=O)c23)cc1C returned B2AR ag 4, LANA-H2B inh -0.3, Calb FLC 38, T cruzi repl 6, A1 inh -0.1, UCH37 inh 3.3, Beta cell apopt -1 and RanGTP-Imp inh 1.8.
For O=C(NC(=S)Nc1ccccc1C(=O)O)c1cncc(Br)c1 the results were B2AR ag -5, LANA-H2B inh 1.6, Calb FLC 5, T cruzi repl -21, A1 inh 0.2, UCH37 inh 2.6, Beta cell apopt 2 and RanGTP-Imp inh -1.2.

The list continues:
`COCCn1c(C)cc(C(=O)COC(=O)c2cccc(O)c2)c1C` gave B2AR ag 4, LANA-H2B inh 6.5, Calb FLC 0, T cruzi repl -10, A1 inh -7.8, UCH37 inh 2.1, Beta cell apopt 2 and RanGTP-Imp inh 0.9.
For CC(=O)N1c2ccc(S(=O)(=O)NCCC(=O)NCCc3cccc(C)c3)cc2CC1C (stereo not given) the results were B2AR ag -6, LANA-H2B inh -3.3, Calb FLC -3, T cruzi repl 6, A1 inh 0.2, UCH37 inh 0.1, Beta cell apopt 1 and RanGTP-Imp inh 1.0.
`COc1ccc(C(=O)NCC(=O)NCC(=O)OCc2ccc(Br)cc2)cc1` gave B2AR ag -2, LANA-H2B inh -197, Calb FLC -28, T cruzi repl -15, A1 inh 0.8, UCH37 inh 2.2, Beta cell apopt 3 and RanGTP-Imp inh 1.3.
For Cc1ccc(-c2csc(NC(=O)Cc3cccs3)n2)cc1C the results were B2AR ag 8, LANA-H2B inh 3.1, Calb FLC -6, T cruzi repl 21, A1 inh -0.3, UCH37 inh 2.2, Beta cell apopt 3 and RanGTP-Imp inh 0.2.
O=C(Nc1cnc2ccccc2c1)c1cccc(-n2cnnn2)c1 was read as B2AR ag -8, LANA-H2B inh 2.8, Calb FLC 1, T cruzi repl -3, A1 inh -0.5, UCH37 inh -26, Beta cell apopt 4 and RanGTP-Imp inh 19*.
`NC(=O)c1ccccc1OCC(=O)Nc1ccc2c(c1)CCC2` gave B2AR ag 3, LANA-H2B inh 1.6, A1 inh 0.6, UCH37 inh 1.5 and Beta cell apopt -1.
COc1ccccc1C(=O)CSc1nccn1C was read as B2AR ag -9, LANA-H2B inh 1.4, Calb FLC -6, T cruzi repl -12, A1 inh -2.6, UCH37 inh 2.7, Beta cell apopt -4 and RanGTP-Imp inh 1.8.
Screening COc1ccc(CCN(Cc2nc(-c3ccccc3)no2)Cc2nc(-c3ccccc3)no2)cc1OC returned B2AR ag 3, LANA-H2B inh 0.1, Calb FLC 0, T cruzi repl 1, A1 inh -1.2, UCH37 inh 1.4, Beta cell apopt -6 and RanGTP-Imp inh 3.2.
Screening COc1ccc(S(=O)(=O)N(CC(=O)O)c2ccccn2)cc1 returned B2AR ag -3, LANA-H2B inh -0.7, Calb FLC 3, T cruzi repl -4, A1 inh 0.4, UCH37 inh -23, Beta cell apopt -5 and RanGTP-Imp inh inconclusive.
O=C(NCc1ccccn1)c1ccc(OC2CCN(Cc3ccccc3)CC2)cc1 was read as B2AR ag -7, LANA-H2B inh -1.9, Calb FLC -3, T cruzi repl -4, A1 inh 0.7, UCH37 inh 0.5, Beta cell apopt 0 and RanGTP-Imp inh 5.6.
`COc1ccc(Cl)cc1NC(=O)/C=C\C(=O)O` gave B2AR ag -4, LANA-H2B inh 0.6, Calb FLC -28, T cruzi repl -14, A1 inh 0.9, UCH37 inh 3.5, Beta cell apopt -2 and RanGTP-Imp inh -1.7.
Cc1cc(C)cc(C(=O)NN2CCN(C)CC2)c1 was read as B2AR ag -2, LANA-H2B inh 2.4, Calb FLC 5, T cruzi repl 19, A1 inh 0.0, UCH37 inh -0.6, Beta cell apopt -12 and RanGTP-Imp inh -0.6.
Cc1c(C#N)c(N=CN(C)C)c(C(=O)c2ccccc2)n1-c1ccc(Br)cc1 was read as B2AR ag -9, LANA-H2B inh 4.3, Calb FLC 2, T cruzi repl 7, A1 inh -1.3, UCH37 inh 6.5, Beta cell apopt -1 and RanGTP-Imp inh inconclusive.
For Cc1ccc(C)c(NC(=S)NNC(=O)c2csc(C)c2)c1 the results were B2AR ag -7, LANA-H2B inh -0.2, Calb FLC 83*, T cruzi repl 7, A1 inh -1.6, UCH37 inh 0.5, Beta cell apopt -2 and RanGTP-Imp inh 1.6.

Compound activity deposited in PubChem by several laboratories.
